gsp antagonist: antagonizes gsp, the McCune-Albright syndrome mutation; gsp-mutant cells, cAMP HTRF, 30 min; control for the full effect not named in the record; Potency, µM (doses to about 76.9 µM), for inactives: at the top dose activity change, negative = inhibition, most hits filed as inhibitors; 0.4% of 340,000 active; AID 624288; active = falling curve of any shape with a large fitted effect; inconclusive = falling curve, mostly with a smaller effect; inactive = flat or rising curve; cell line not stated here;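 further: intracellular cAMP measured with PDE inhibitor Ro 20-1724 present during compound exposure; potency means the concentration at half of the fitted maximal effect; on the % scale 0 is the no-effect control and ±100 the full control effect; nearly all actives have a fitted effect of over 65% in size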
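Cells in G418 medium, seeded 16-24 h, 37C; buffer exchange to DPBS + 1 mM CaCl2, 0.5 mM MgCl2, 0.05% BSA; cpds in DMSO + […] (300 uM stock), 30 min 37C; HTRF cAMP detection.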
ClpP mod: qHTS Assay for Activators of ClpP | Potency, µM (top dose mostly 57.5 µM), inactives show top-dose activity change, negative = active | purified B. subtilis ClpP, FRET peptide cleavage, 20 min | AID 651965, 2013 | 1.9% of 340,000 active | ATP-dependent Clp protease proteolytic subunit (Bacillus subtilis (strain 168)), P80244; active = well fitted falling curve with a large enough effect; inconclusive = small, poorly fitted or top-dose-only effect; inactive = no such curve, though single readings can be large or run the other way; further: potency means the concentration at half of the fitted maximal effect; the source files actives as falling curves though it sought activators and does not explain the sign; nearly all actives have a fitted effect of over 65% in size; many hits overshoot -100%
Target sequence (P80244 whole entry, looked up): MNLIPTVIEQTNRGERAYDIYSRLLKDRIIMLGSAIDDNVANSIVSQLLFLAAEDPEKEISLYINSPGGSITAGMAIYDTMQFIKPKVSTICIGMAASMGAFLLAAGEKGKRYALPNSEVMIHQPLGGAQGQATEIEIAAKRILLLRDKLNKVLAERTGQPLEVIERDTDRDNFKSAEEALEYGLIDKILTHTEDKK
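FRET quenching reversal measured ClpP activation: 10 microg/mL B. subtilis ClpP at pH 8 with the FRET-FV decapeptide, read at 430 nm after 320 nm excitation. The 20-min minus 0-min signal was scaled between DMSO/no-enzyme wells and ADEP (5.8 microM final).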
Sfp PPTase inh: inhibitors of Bacillus subtilis Sfp phosphopantetheinyl transferase; Biochemical Sfp PPTase activity, qHTS; Potency, µM, for the others: max response, negative = inhibition, most hits filed as inhibitors; 3.5% of 310,000 active; Q9F4F7; AID 1490; active means well fitted inhibition curve with a large enough effect; inconclusive means small, poorly fitted or top-dose-only effect, or another doubt; inactive means no such curve, though single readings can be large or run the other way;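 further: the enzyme is Sfp with the accession as filed and its product quenches rhodamine fluorescence; potency means the concentration at half of the fitted maximal effect; 0% = enzyme reaction without inhibitor and -100% = no enzyme wells; top concentration of the series not given in the record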
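Fluorescence-quenching assay: 15 nM Sfp-PPTase preincubated 15 min at room temperature with compound, then 5 uM rhodamine-CoA and 12.5 uM BHQ-2-labelled YbbR peptide added. Fluorescence (ex 525/em 598 nm) read at start and after 30 min; difference gives rate.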
TRPV1 potentiator: enhances activation of the human vanilloid receptor TRPV1 | TRPV1-expressing cells, Fluo-8 calcium influx, capsaicin EC20 potentiation; host cell line not named in the record; control for the full effect not named in the record | potentiation, % at 8.33 µM | 0.02% of 320,000 active; active means potentiation above 80%; inconclusive means 30% to 80%; inactive means below 30%; further: 0% is about no effect
Target sequence (Q8NER1 whole entry, looked up): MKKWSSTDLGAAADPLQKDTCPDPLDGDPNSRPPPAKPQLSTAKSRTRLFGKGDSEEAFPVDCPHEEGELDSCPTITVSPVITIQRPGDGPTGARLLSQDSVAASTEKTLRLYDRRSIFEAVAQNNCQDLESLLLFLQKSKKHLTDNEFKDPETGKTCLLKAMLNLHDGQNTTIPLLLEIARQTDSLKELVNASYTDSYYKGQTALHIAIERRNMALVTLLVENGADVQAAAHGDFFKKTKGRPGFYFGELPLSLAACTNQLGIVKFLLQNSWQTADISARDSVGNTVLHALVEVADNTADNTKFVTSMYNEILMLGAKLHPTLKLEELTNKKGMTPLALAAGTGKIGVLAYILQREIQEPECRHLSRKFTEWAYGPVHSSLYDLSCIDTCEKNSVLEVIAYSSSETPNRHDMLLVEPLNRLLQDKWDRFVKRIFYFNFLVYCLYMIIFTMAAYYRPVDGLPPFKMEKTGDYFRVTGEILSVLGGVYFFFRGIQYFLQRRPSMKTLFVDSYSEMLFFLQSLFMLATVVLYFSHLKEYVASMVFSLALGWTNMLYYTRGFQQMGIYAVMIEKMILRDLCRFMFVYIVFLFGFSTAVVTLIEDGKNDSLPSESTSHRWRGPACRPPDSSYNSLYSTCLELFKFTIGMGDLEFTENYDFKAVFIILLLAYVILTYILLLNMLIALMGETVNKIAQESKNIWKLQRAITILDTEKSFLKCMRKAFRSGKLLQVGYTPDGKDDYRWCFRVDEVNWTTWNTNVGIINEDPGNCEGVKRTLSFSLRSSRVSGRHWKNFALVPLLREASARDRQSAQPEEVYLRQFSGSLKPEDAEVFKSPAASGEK
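TRPV1-expressing cells were cultured overnight at 35.5C and loaded with Fluo-8 calcium dye for 40 to 90 min at room temperature. After a 10 s baseline, compound was added and calcium influx was read kinetically for 3 min (ex 480/em 520 nm).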
Menin-MLL FL inh: displaces fluorescein MLL peptide from human menin; 290,000 tested, under 10 active; Fluorescence polarization, fluorescein-MLL peptide displacement from menin; FP activity change, % at 61.4 µM; inconclusive = falling polarisation curve, or a change in total fluorescence; inactive = total fluorescence flat and polarisation flat or rising; no compound was filed as active; the % refers to the polarisation; negative = inhibition;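 further: % of control where 0% means no effect; inhibitors lower the polarisation; unlabelled MLL peptide was the positive control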
gsp agonist: agonists of gsp mutant (McCune-Albright syndrome); Potency, µM (top dose mostly 76.9 µM), inactives show at the top dose activation (cAMP increase), hits mostly activators; 0.13% of 340,000 active; gsp mutant cells, cAMP HTRF, 30 min; control for the full effect not named in the record; AID 624287; active = well fitted activation curve with a large enough effect; inconclusive = small, poorly fitted or top-dose-only effect, or another doubt; inactive = no such curve, though single readings can be large or run the other way; cell line not stated here;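 further: phosphodiesterase inhibitor Ro 20-1724 added with compounds to block cAMP breakdown; potency means the concentration at half of the fitted maximal effect; nearly all actives have a fitted effect of over 60% in size; about a fifth of the inactives were tested at one dose only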
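Cells stably selected in G418 were plated at 2000/well, grown 16-24 hr, then given compounds in DMSO with the PDE inhibitor […] (300 uM solution added) for 30 min at 37C; cAMP was read by HTRF.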
CtBP-E1A inh: CtBP/E1A binding inhibition. activity change, % (no concentration beside the values). 0.49% of 340,000 active. AlphaScreen GST-E1A/His-CtBP binding, 1536-well; stronger effect = lower value; control for the full effect not named in the record. AID 651724; in the data active means activity change below about -65%; inconclusive means about -30% to -65%; inactive means above about -30%; further: on the % scale 0 is the no-effect control and ±100 the full control effect; compound concentration not given in the record
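Steps: dispense buffer (Tris pH 8.0, NaCl 300 mM, TCEP 1 mM, BSA, Tween 20); add 5X protein mix (GST-E1A, His-CtBP, 125 nM each); pin 23 nL compound; 2 h at 37 °C, dark; add 5X beads (50 ug/mL); 1 h; read.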
The depositor's hits bear a star; u = inconclusive; x = not tested or not shown; [ ] = dose if it differs, or a comment.

compound | gsp antagonist | ClpP mod | Sfp PPTase inh | TRPV1 potentiator | Menin-MLL FL inh | gsp agonist | CtBP-E1A inh
CCOC(=O)C1CCCN(S(=O)(=O)Cc2ccc(Cl)cc2)C1 (centres undefined) | 4% | -2.3% | 16% | 2 | -2.6 | -3%[15.4 µM] | 14
CCCCOc1ccc(C(=O)N(CC)CC(=O)NCc2cccs2)cc1 | -2% | -2.6% | 4% | -10 | x | -23% | -2
CCONc1ncnc2nonc12 | 4% | x | 20% | 3 | 3.8 | 0% | -4
NC(=O)CC1C(=O)N(c2ccc(F)cc2)C(=O)N1NC(=O)CCc1ccccc1 (centres undefined) | 14% | x | 17% | 5 | 1.5 | -1%[15.4 µM] | 9
O=C(Cc1ccsc1)N1CCN(S(=O)(=O)c2cc(C(F)(F)F)cc(C(F)(F)F)c2)CC1 | -4% | 1.4% | 6% | -10 | -0.9 | 8%[15.4 µM] | -1
O=C(NCCC1CCCCN1S(=O)(=O)c1ccc(Cl)cc1)C(=O)NCc1ccco1 (centres undefined) | -5% | -7.2% | x | -1 | x | 3%[15.4 µM] | -4
Cc1ccc(S(=O)(=O)N(C)C)cc1NC(=O)C1CCCC1 | 7% | -1.1% | -27% | 4 | 6.1 | 4% | 3
Cn1c(SCC(=O)C(C)(C)C)nnc1-c1cccnc1 | 8% | -5.1% | 2% | 2 | 1.6 | -47%[inhibitor] | -2
C=C(C)CNC(=S)N/N=C/c1c(F)cccc1F | 12% | x | 2% | -5 | -1.3 | 14% | -3
Cc1ccc(NC(=O)Cn2c(=O)cnc3ccccc32)cc1S(=O)(=O)N(C)C | 6% | -11% | 2% | 5 | 7.6 | -34%[inhibitor] | -4
N#C/C(=C1/CCCCCN1)c1nc2ccccc2s1 | -8% | 7.3% | -8% | -8 | 5.2 | 31% | 8
COCC(=O)n1nc(-c2ccccc2)nc1NCc1ccc(N(C)C)cc1 | -17% | -2.1% | 5% | 22 | -0.2 | -5%[15.4 µM] | -17

Laid out differently: entries from further up
The line under a structure holds: gsp antagonist, ClpP mod, Sfp PPTase inh, TRPV1 potentiator, Menin-MLL FL inh, gsp agonist, CtBP-E1A inh
CCOC(=O)C1CCCN(S(=O)(=O)Cc2ccc(Cl)cc2)C1 (centres undefined)
 : 4%, -2.3%, 16%, 2, -2.6, -3%[15.4 µM], 14
CCCCOc1ccc(C(=O)N(CC)CC(=O)NCc2cccs2)cc1
 : -2%, -2.6%, 4%, -10, x, -23%, -2
CCONc1ncnc2nonc12
 : 4%, x, 20%, 3, 3.8, 0%, -4
NC(=O)CC1C(=O)N(c2ccc(F)cc2)C(=O)N1NC(=O)CCc1ccccc1 (centres undefined)
 : 14%, x, 17%, 5, 1.5, -1%[15.4 µM], 9
O=C(Cc1ccsc1)N1CCN(S(=O)(=O)c2cc(C(F)(F)F)cc(C(F)(F)F)c2)CC1
 : -4%, 1.4%, 6%, -10, -0.9, 8%[15.4 µM], -1
O=C(NCCC1CCCCN1S(=O)(=O)c1ccc(Cl)cc1)C(=O)NCc1ccco1 (centres undefined)
 : -5%, -7.2%, x, -1, x, 3%[15.4 µM], -4
Cc1ccc(S(=O)(=O)N(C)C)cc1NC(=O)C1CCCC1
 : 7%, -1.1%, -27%, 4, 6.1, 4%, 3
Cn1c(SCC(=O)C(C)(C)C)nnc1-c1cccnc1
 : 8%, -5.1%, 2%, 2, 1.6, -47%[inhibitor], -2
C=C(C)CNC(=S)N/N=C/c1c(F)cccc1F
 : 12%, x, 2%, -5, -1.3, 14%, -3
Cc1ccc(NC(=O)Cn2c(=O)cnc3ccccc32)cc1S(=O)(=O)N(C)C
 : 6%, -11%, 2%, 5, 7.6, -34%[inhibitor], -4
N#C/C(=C1/CCCCCN1)c1nc2ccccc2s1
 : -8%, 7.3%, -8%, -8, 5.2, 31%, 8

Going on with the list.
compound | gsp antagonist | ClpP mod | Sfp PPTase inh | TRPV1 potentiator | Menin-MLL FL inh | gsp agonist | CtBP-E1A inh
CCCCOC(=O)Nc1cccc(Cl)c1C | -1% | -0.3% | 14% | -14 | 0.8 | -6% | 11
COc1ccc(CNC(=O)COc2ccccc2C(=O)c2cnn(-c3ccccc3)c2)cc1OC | u | -1.6% | x | -5 | x | 29% | -19
Cc1ccc(C(NC(=O)c2ccccc2)C(Cl)(Cl)Cl)cc1 (centres undefined) | -12% | 2.2% | 9% | 8 | 4.1 | -30% | 11
CS(=O)(=O)N1CCN(c2ccc(NC(=O)Cc3ccccc3)cc2)CC1 | -1% | -1.3% | 11% | -11 | 0.6 | -4% | -7
CCN1C(=O)/C(=C/c2ccc(C)s2)SC1=Nc1ccc(OC)cc1 | -9% | 1.1% | -13% | -17 | 2.0 | 10% | -5
COc1ccc(CN2C(=O)C(CC(=O)NCCCCc3ccccc3)CC(C(=O)N3CCOCC3)=C2C)cc1 (centres undefined) | x | -1.8% | x | x | x | -3% | -15
O=C(N/N=C/c1c[nH]c2ccccc12)c1ccn(Cc2ccc(Cl)cc2)n1 | -12% | -9.4% | 0% | 1 | -2.5 | -28% | -6
CC(=O)Nc1ccc(-c2csc(NC(=O)C3CC(=O)N(c4ccc5c(c4)OCCO5)C3)n2)cc1 (centres undefined) | -10% | -3.2% | 4% | 5 | 0.3 | -16% | x
COc1ccccc1NC(=O)N1CCC(c2nc3cc(C)c(C)cc3[nH]2)CC1 | 21% | -6.2% | -14% | -12 | -3.8 | -31% | 0
CN(CC(=O)NCc1ccncc1)S(=O)(=O)c1ccc(Br)cc1 | -3% | -1.4% | 13% | -6 | -6.9 | -16% | 6
CCCCC(=Nc1ccc(N)cc1)C1=C(O)C(C(=O)OC)C(C)(C)CC1=O (centres undefined) | u | -2.3% | 1% | 28 | 5.5 | -30% | u
Cc1noc(/C=C/N(C)C)c1S(=O)(=O)N1CCN(c2ccc(F)cc2)CC1 | -9% | -0.3% | 5% | 6 | 0.3 | -3% | x
Cc1[nH]n(-c2cccc(Cl)c2)c(=O)c1-c1ccc(Cl)cc1 | 28µM* | -2.4% | -12% | -1 | 2.1 | -11% | -6
COc1ccc(N2C(=O)CC(SCCc3nc4ccccc4[nH]3)C2=O)cc1 (centres undefined) | -11% | -2.9% | 9% | -12 | -4.1 | -41%[inhibitor] | 6
COc1ccc(CCN(C(=O)C(F)(F)F)C(C(=O)NC2CCCC2)c2cccs2)cc1OC (centres undefined) | -8% | 1.5% | -1% | 12 | -0.3 | -43%[inhibitor] | 10
CC(C)(C)c1cc(C(C)(C)C)cc(S(=O)(=O)CCc2ccccn2)c1 | -13% | -0.3% | -3% | -21 | -0.7 | 7% | -19
CCCCCC1CC(=O)N(Cc2ccc(Cl)cc2)C(=O)N1 (centres undefined) | 6% | -6.2% | 3% | -4 | -0.5 | 3% | -2
CCn1c(COc2ccccc2)nnc1SCC(=O)Nc1ccc2c(c1)OCCO2 | -8% | 1.1% | 2% | 4 | 2.9 | 25% | 2
Cc1nn(C)c(C)c1CN(C)C(=O)c1nn2c(c1Br)NC(c1cccs1)CC2C(F)(F)F (centres undefined) | -10% | -12% | 4% | 3 | 2.7 | 21%[15.4 µM] | 11
COc1ccc(-c2cc(C(=O)Nc3cnn(Cc4ccccc4C)c3)no2)cc1OC | 13% | 37% | 6% | 2 | 2.4 | 19% | 43
Cc1cccc(N=Cc2cc3c(cc2[N+](=O)[O-])OCO3)c1 | 11% | -9.6% | -6% | 11 | 2.2 | 6% | -15
Cc1ccc2c(COC(=O)CNC(=O)c3ccco3)cc(=O)oc2c1C | 4% | -17% | x | x | x | 11% | -18
CCCCN1CN(S(=O)(=O)c2cccs2)c2nc3ccccc3nc21 | x | x | u | u | -0.7 | x | x
CN1CCN(Cc2cccc(Oc3ccc(Cl)cc3)c2)CC1 | 15% | -10% | 10% | 0 | -0.4 | -53%[inhibitor] | 7

More compounds follow.
| SMILES | gsp antagonist | ClpP mod | Sfp PPTase inh | TRPV1 potentiator | Menin-MLL FL inh | gsp agonist | CtBP-E1A inh |
| --- | --- | --- | --- | --- | --- | --- | --- |
| CN(Cc1ccc(Cl)s1)C(=O)CN1C(=O)N(C)C2(CCCCC2)C1=O | 10% | -2.4% | x | -6 | x | -45%[inhibitor] | -7 |
| COC(=O)c1c(C)oc2ccc(N(C(=O)Oc3ccccc3)S(=O)(=O)c3ccc(Cl)c([N+](=O)[O-])c3)cc12 | -15% | 1.4% | 2% | 2 | 5.9 | u | 1 |
| CC1(C)CC(=O)C=C(NCc2ccc(C(=O)O)cc2)C1 | -1% | -3.3% | 17% | 3 | 0.6 | -32%[inhibitor] | -21 |
| COc1c(C)cc(C(=O)C2CCCN(C(=O)Cn3ccc(C)n3)C2)cc1C (centres undefined) | -7% | x | 16% | -8 | -1.6 | 2% | 8 |
| C/C(CC(=O)NCc1ccco1)=N\NC(=O)C(c1ccccc1)c1ccccc1 | 5% | 2.4% | 0% | x | -1.7 | 1% | 5 |
| COc1cc(NS(=O)(=O)c2ccc(NC(=O)CSC3=NCCS3)cc2)nc(OC)n1 | x | x | 8% | 3 | -0.2 | x | x |
| CCOc1cc2nc(-c3ccc(OC)c(OC)c3)nc(N3CC(C)OC(C)C3)c2cc1OC (centres undefined) | x | x | 1% | 3 | 7.7 | x | x |
| CC(C)NC(=O)C(=O)Nc1cc2c3c(c1)C(C)C(=O)N3CCC2 (centres undefined) | 5% | 0.5% | 11% | -11 | -0.1 | 3% | 1 |
| CCn1c(C(C)NC(=O)c2ccc(C)cc2)n[nH]c1=S (centres undefined) | -3% | -0.9% | -4% | 9 | 2.7 | 18% | -12 |
| CCOC(=O)C1CCN(C(=O)CCS(=O)(=O)c2ccc3c(c2)CC(C)N3C(=O)CC)CC1 (centres undefined) | 4% | x | 9% | 5 | 1.2 | -1%[15.4 µM] | 16 |
| Cc1nc2ccccc2n1S(=O)(=O)N(C)C | 1% | 0.7% | 16% | -11 | 3.5 | -32%[inhibitor] | 1 |
